RE007 growth inh: less growth of the S. pombe RE007 Vpr strain; Potency, µM (doses to about 92.2 µM), for the others: at the highest dose activity change, negative = less growth; AID 651644; actives 0.21% (n = 360,000); S. pombe RE007 Vpr strain, BacTiter-Glo ATP luminescence, 24 h; control for the full effect not named in the record; active = well fitted falling curve with a large enough effect; inconclusive = small, poorly fitted or top-dose-only effect; inactive = no such curve, though single readings can be large or run the other way;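 also: % is scaled to controls: 0 for no effect and ±100 for the full control effect; nearly all actives have a fitted effect of over 50% in size; the assay follows cell death caused by Vpr and the record does not say whether a fall means rescue or toxicity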
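Fission yeast RE007 carrying one integrated HIV-1 vpr copy, seeded at OD 0.01 in PMG+AL medium with 23 nL pinned compound. Grown 24 h at 30 degrees; viability read by BacTiter-Glo luminescence after 5 min.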
SARS PLP yeast: inhibitors of SARS-CoV papain-like protease in yeast | S. cerevisiae expressing SARS-CoV PLpro, growth rescue; control for the full effect not named in the record | actives 0.19% (n = 330,000) | AID 485353 | Potency, µM (doses to about 32.9 µM), inactives show at the top dose activity, positive = growth rescue; active means well fitted rising curve with a large enough effect; inconclusive means small, poorly fitted or top-dose-only effect; inactive means no such curve, though single readings can be large or run the other way; also: 0% is about no effect; nearly all actives have a fitted effect of over 55% in size; growth read by luminescence after 48 h
Lassa entry inh: Lassa virus entry inhibition | Lassa virus pseudotype entry inhibition, cell reporter; control for the full effect not named in the record | Potency, µM (doses to about 37.9 µM), for inactives: top-dose activity change, negative = inhibition, hits mostly inhibitors | actives 1.2% (n = 300,000); active means well fitted inhibition curve with a large enough effect; inconclusive means small, poorly fitted or top-dose-only effect, or effect the other way; inactive means flat fitted curve, though single readings scatter; tested in HEK293 cells; also: % is scaled to controls: 0 for no effect and ±100 for the full control effect; nearly all actives have a fitted effect of over 50% in size; luciferase read-out
Cruzain inh Det: cruzain (T. cruzi) inhibition with detergent; P25779; purified cruzain, Z-FR-AMC fluorescence, 0.01% Triton; Potency, µM, for inactives: max response, negative = inhibition, hits mostly inhibitors; actives 0.43% (n = 200,000); AID 1478;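 also: plate controls were neutral wells for no effect and buffer without enzyme for full effect; nearly all actives have a fitted effect of over 40% in size; top concentration of the series not given in the record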
Target sequence (P25779 123-467 limits assumed): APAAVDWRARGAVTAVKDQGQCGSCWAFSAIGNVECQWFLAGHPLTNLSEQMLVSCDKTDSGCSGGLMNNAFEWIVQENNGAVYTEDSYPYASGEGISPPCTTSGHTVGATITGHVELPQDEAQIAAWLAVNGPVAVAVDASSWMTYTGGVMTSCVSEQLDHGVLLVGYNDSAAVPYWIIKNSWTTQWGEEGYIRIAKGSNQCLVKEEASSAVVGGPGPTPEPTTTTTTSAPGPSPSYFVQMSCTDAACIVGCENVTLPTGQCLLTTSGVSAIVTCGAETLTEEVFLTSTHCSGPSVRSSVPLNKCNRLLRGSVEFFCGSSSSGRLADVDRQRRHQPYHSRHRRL
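Detergent-containing run (0.01% Triton X-100) in acetate buffer pH 5.5 with 5 mM DTT: enzyme at 1.5 nM final, 15 min compound preincubation at room temperature, then 2 uM Z-FR-AMC substrate. Activity taken as 60 s fluorescence increase at 360/450 nm.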
Cruzain inh noDet: blocks cruzain activity in detergent-free assay. purified cruzain, Z-FR-AMC fluorescence, no detergent. Potency, µM, without a hit: max response, negative = inhibition, most hits filed as inhibitors. actives 2.3% (n = 200,000);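 also: plate controls were enzyme without inhibitor for no effect and buffer without enzyme for full effect; nearly all actives have a fitted effect of over 40% in size; top concentration of the series not given in the record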
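Purified cruzain at 1.5 nM, pre-incubated 15 min with compound at room temperature in 100 mM sodium acetate pH 5.5, 5 mM DTT, 0.00005% Triton X-100. Reaction started with 2 uM Z-FR-AMC; AMC fluorescence increase over 60 s gives rate.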
StopGo reporter: FMDV 2A StopGo reporter, luciferase signal | human cells with a luciferase reporter of 2A StopGo recoding; control for the full effect not named in the record | Potency, µM (titrated, usually from 57.9 µM), for the others: at the top dose signal change, negative = less light | AID 1159524 | actives 1.2% (n = 410,000); active = well fitted falling curve with a large enough effect; inconclusive = small, poorly fitted or top-dose-only effect; inactive = no such curve, though single readings can be large or run the other way; tested in HEK293T cells; also: % is scaled to controls: 0 for no effect and ±100 for the full control effect; nearly all actives have a fitted effect of over 45% in size; luciferase light after 4 h
NS1 inh: influenza NS1 inhibition; S. cerevisiae slowed by influenza A NS1, growth recovery by OD600; Potency, µM (highest dose often 46.1 µM), for the others: top-dose activity, positive = more growth; actives 0.4% (n = 270,000); AID 2326; active means well fitted rising curve with a large enough effect; inconclusive means small, poorly fitted or top-dose-only effect; inactive means no such curve, though single readings can be large or run the other way; also: nearly all actives have a fitted effect of over 50% in size
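S. cerevisiae expressing influenza A NS1, grown in glucose, washed, then diluted 1:100 into pH 6.0 -URA galactose medium with 23 nl compound. Growth recovery read as OD600; NS1-free strain serves as control.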
Marburg entry inh: blocks Marburg virus binding to or entry into cells | Potency, µM (top dose mostly 37.8 µM), without a hit: at the highest dose activity change, negative = inhibition, hits mostly inhibitors | actives 1.8% (n = 300,000) | AID 540276 | Marburg virus pseudotyped entry inhibition, cell reporter; control for the full effect not named in the record; about a third of the inactives were read at about 46 µM; active = well fitted inhibition curve with a large enough effect; inconclusive = small, poorly fitted or top-dose-only effect, or effect the other way; inactive = flat fitted curve, though single readings scatter; tested in HEK293 cells; about a fifth of its hits are not listed in these tables; also: % is scaled to controls: 0 for no effect and ±100 for the full control effect; luciferase read-out
Numbers without * were called inactive; ? = inconclusive; . = no result given; & = joins results of further samples; [ ] = another dose, or the depositor's remark. Unless noted, calls follow the shape of the dose curve; as a rule, active = well fitted curve in the direction sought with a large enough effect; inconclusive = small, poorly fitted or top-dose-only effect, or another doubt; inactive = no such curve, though single readings can be large; an effect the other way counts as inactive or inconclusive. Potency is read from the fitted curve at half-maximal effect.

SMILES	RE007 growth inh	SARS PLP yeast	Lassa entry inh	Cruzain inh Det	Cruzain inh noDet	StopGo reporter	NS1 inh	Marburg entry inh
O=C(CN(CCO)c1ccccc1)NC12CC3CC(CC(C3)C1)C2	-11%	2%	-24%	3.0%	3%	-4%	-15%	-8%
CCOc1ccc(C/C(N)=N/n2cnnc2)cc1	9%	1%	5%	8.4%	-1%	.	14%	-4%
Cc1nc2c(n1C1CCCCC1)C(=O)c1ccccc1C2=O	-9%	-3%	-1%	-3.3%	0%	-7%	15%	15%
CCSc1ccccc1C(=O)NCc1cccnc1	-12%	0%	.	.	.	-12%	6%	.
C=CCNc1nc(-c2cccc(OC)c2O)nc2ccccc12	8%	5%	7%	-16%	-17%	-8%	-7%	-29%
CCOC(=O)c1c(-c2ccc(-c3ccccc3)cc2)csc1NC(=O)CCN1CCOCC1	-1%	-88%	10µM*	-4.2%	?	-25%	-24%	?
COc1ccc(N2CCN(C(CNS(=O)(=O)c3cccs3)c3cccnc3)CC2)cc1 (stereo not given)	3%	-8%	0%	1.9%	-5%	-22%	-2%	18%
O=C(Cc1ccc(Cl)cc1)NCC(c1cccs1)S(=O)(=O)c1ccc(Cl)cc1 (stereo not given)	.	.	?	-4.7%	2%	-12%	.	.
CCN1C(=O)c2ccccc2S(=O)c2ccc(C(=O)N3CCN(c4ccccc4)CC3)cc21 (stereo not given)	.	.	-4%[46.1 µM]	0.0%	-1%	-18%	.	8%[46.1 µM]
CC(=O)c1c(C)[nH]c(C(=O)OC(C)C(=O)Nc2cc(S(=O)(=O)N3CCCCC3)ccc2Cl)c1C (stereo not given)	5%	22%	3%	-5.0%	11%	?	14%	?
CN1CCCC1CCNS(=O)(=O)c1ccc(Br)cc1 (stereo not given)	-4%	20%	-10%	-1.3%	1%	-18%	7%	?
CC(C)CCN=CC1=C(O)CC(c2ccccc2)CC1=O (stereo not given)	-14%	-2%	-1%	.	.	19%	.	-2%[46.1 µM]
CCCc1nc2sc3c(c2c(=O)n1NC(=O)CCC(=O)OC)CCCC3	-16%	0%	-13%	.	.	-17%	-1%	-8%[46.1 µM]
COc1ccc(C(=O)n2c(SC)nc3cc4c(cc32)OCCO4)cc1	11%	-4%	7%	-3.7%	?	45%[activator]	-108%	28%
O=[N+]([O-])c1ccc(NN=Cc2cccc3ccccc23)cc1	12%	.	-2%[46.1 µM]	.	.	-15%	.	-19%[46.1 µM]
O=C(NNC(=O)c1ccc(F)cc1)c1ccncc1	-12%	0%	.	.	.	-5%	7%	.
Cc1cccc(C(=O)OC(C)C(=O)Nc2ccc(S(=O)(=O)N3CCCC3)cc2)c1O (stereo not given)	2%	0%	?	.	.	-20%	.	-40%
CCOC(=O)c1[nH]c(C)c(CN(Cc2ccco2)C(=O)C(F)(F)F)c1C	-8%	17%	-37%	-5.9%	-8%	0%	-12%	?
O=C(CCc1nc2ccccc2c(=O)[nH]1)OCC(=O)N1CCc2ccccc21	3%	1%	-3%	.	.	2%	.	1%[46.1 µM]
CCc1ccc(N(C(=O)c2csnn2)C(C(=O)NC2CCCC2)c2cccnc2)cc1 (stereo not given)	2%	4%	?	.	.	-2%	-1%	?
COc1ccc(CNC(=O)CN2C(=O)NC3(CCCCCC3)C2=O)cc1	45%	-3%	-2%	.	.	4%	.	-2%
CC1CN(Cc2ccccc2)c2nc3c(c(=O)[nH]c(=O)n3C)n2C1 (stereo not given)	25%	-4%	0%	.	.	-11%	0%	-23%
CC1=CC(C)(C)N(C(=O)CN2C(=O)CCC2=O)c2ccccc21	-15%	-1%	.	.	.	-11%	-1%	.
CC(/C=C/c1ccccc1)=N/NC(=O)CNC(=O)c1ccc2c(c1)OCO2	1%	-4%	3%	4.2%	?	-3%	-7%	5%
c1cnc2c(c1)ccc1ncccc12	-6%	-1%	.	.	.	1%	-6%	.
O=C1OC2(c3ccccc31)c1ccccc1-c1ccccc12	23%	.	-8%	.	.	1%	.	?
COC(=O)CCC(=O)N(C)CC1CCCN(CCc2cccc(C(F)(F)F)c2)C1 (stereo not given)	0%	-1%	.	.	.	-26%	9%	.
COC(=O)c1ccc(S(=O)(=O)NCc2ccco2)o1	17%	0%	.	.	.	-1%	0%	.
Cc1ccccc1Nc1c(-c2ccc(N3CCOCC3)cc2)nc2ccc(Cl)cn12	.	.	-15%[46.1 µM]	-3.9%	-4%	12%	.	-29%[46.1 µM]
COCCNC(=O)c1ccc(Cl)c(Cl)c1	8%	-9%	0%	-0.1%	-1%	20%	-20%	-3%

Whole records, looked up by structure. Order of screens: RE007 growth inh | SARS PLP yeast | Lassa entry inh | Cruzain inh Det | Cruzain inh noDet | StopGo reporter | NS1 inh | Marburg entry inh
`CC(/C=C/c1ccccc1)=N/NC(=O)CNC(=O)c1ccc2c(c1)OCO2` across the screens: 1% | -4% | 3% | 4.2% | ? | -3% | -7% | 5%
`O=C(CCc1nc2ccccc2c(=O)[nH]1)OCC(=O)N1CCc2ccccc21` across the screens: 3% | 1% | -3% | . | . | 2% | . | 1%[46.1 µM]
`COC(=O)c1ccc(S(=O)(=O)NCc2ccco2)o1` across the screens: 17% | 0% | . | . | . | -1% | 0% | .
`COc1ccc(CNC(=O)CN2C(=O)NC3(CCCCCC3)C2=O)cc1` across the screens: 45% | -3% | -2% | . | . | 4% | . | -2%
`CC1=CC(C)(C)N(C(=O)CN2C(=O)CCC2=O)c2ccccc21` across the screens: -15% | -1% | . | . | . | -11% | -1% | .

Next section.
SMILES	RE007 growth inh	SARS PLP yeast	Lassa entry inh	Cruzain inh Det	Cruzain inh noDet	StopGo reporter	NS1 inh	Marburg entry inh
CN(C)S(=O)(=O)c1ccc(Cl)c(NC(=O)c2ccncc2)c1	0%	-15%	23%	0.4%	5%	-21%	15%	-6%
Nc1c(C(=O)Nc2cccc(Cl)c2)sc2nc3c(cc12)CN(Cc1ccccc1)CC3	.	.	2%[46.1 µM]	-7.8%	?	-15%	.	12%[46.1 µM]
CC(C)Oc1ccc(C(=O)N(Cc2ccco2)C2CCS(=O)(=O)C2)cc1 (stereo not given)	6%	-3%	-1%	-3.8%	1%	-7%	0%	10%
CC1(C)OC1COc1c2occc2cc2ccc(=O)oc12 (stereo not given)	7%	13%	11%	-2.6%&-2.4%	-3%&9%	-2%&-15%	10%	?
O=C(Cc1ccc(Cl)cc1)NCC(=O)N1CCCCC1	13%	0%	?	.	.	3%	1%	-4%[46.1 µM]
O=[N+]([O-])c1cccc(-c2ccc(/C=N/Nc3nc(N4CCCCC4)nc(N4CCCCC4)n3)o2)c1	-4%	-1%	?	.	.	-18%	.	?
COc1ccc(-c2coc3cc(OC)cc(OC)c3c2=O)cc1	-21%	-3%	.	-2.2%	5%	40%&24%[activator]	-10%	.
O=C1[C@H]2[C@@H](/C=C/c3ccccc3)N3C(=O)CN(CC4CC4)C(=O)[C@@]3(Cc3ccccc3)[C@H]2C(=O)N1c1ccccc1	-20%	-14%	.	.	.	-5%	4%	.
COc1ccc(Nc2nnc(-c3ccc(C)c(S(=O)(=O)NCc4nc5ccccc5[nH]4)c3)c3ccccc23)cc1	.	.	-25%[46.1 µM]	-5.6%	?	42%[activator]	.	?
Cc1cc(C)c(NS(=O)(=O)c2ccc(NC(=O)CCC(=O)O)cc2)c(C)c1	-21%	2%	-3%	.	.	-5%	.	3%[46.1 µM]
CC(C)C(CO)NC(=O)CC(=O)NC(CO)C(C)C (stereo not given)	5%	3%	7%	4.3%	-7%	-19%	-9%	18%
Cc1cccc(C(=O)NCC2CCN(C(=O)c3cccc(C)c3)CC2)c1	2%	15%	0%	.	.	-12%	9%	2%
CCN(CC)CCNS(=O)(=O)c1ccc2c3c(cccc13)C(=O)N2	-5%	3%	1%	.	.	41%[activator]	8%	4%
O=S1(=O)CCOCCCN1Cc1cccc(F)c1	-8%	-2%	.	.	.	4%	6%	.
O=C(N/N=C/c1cc(Br)cs1)c1c[nH]c2ccccc12	-20%	-3%	.	.	.	36%[activator]	-9%	.
Cc1cccc(S(=O)(=O)NNC(=O)c2sc(C)nc2C)c1	30%	0%	2%	-2.5%	-3%	-14%	-2%	8%[46.1 µM]
CCOC(=O)C(C)Sc1ccc2nnc(CCNS(=O)(=O)c3ccccc3)n2n1 (stereo not given)	14%	1%	5%[46.1 µM]	-0.6%	6%	-3%&-3%	.	.
CC(=O)Nc1cc(C(=O)N2CCC3(CC2)OCCO3)ccc1S(=O)(=O)c1ccc(C)cc1	1%	-1%	-3%	3.6%	-8%	22%	-3%	-1%&-1%
COc1ccc(Cn2c(CCC(=O)Nc3cc(OC)c(OC)c(OC)c3)nc3cccnc32)cc1	.	.	-28%[46.1 µM]	-4.3%	?	-7%	.	0%[46.1 µM]
Cc1ccc(/C=N/N2CCN(C3c4ccccc4-c4ccccc43)CC2)s1	-2%	-14%	2%	-6.0%	?	0%	6%	?
COc1ccccc1N1CCN(C(=O)c2cc(=O)c3cc(C)cc(C)c3o2)CC1	4%	1%	?	.	.	15%	-1%	.
COc1cccc(N2CCN(Cc3cccnc3)CC2)c1	-1%	-3%	3%	5.3%	3%	7%	4%	?

2 consecutive compounds from above, quoted:
SMILES	RE007 growth inh	SARS PLP yeast	Lassa entry inh	Cruzain inh Det	Cruzain inh noDet	StopGo reporter	NS1 inh	Marburg entry inh
O=C(CN(CCO)c1ccccc1)NC12CC3CC(CC(C3)C1)C2	-11%	2%	-24%	3.0%	3%	-4%	-15%	-8%
CCOc1ccc(C/C(N)=N/n2cnnc2)cc1	9%	1%	5%	8.4%	-1%	.	14%	-4%

The order is random (roughly 4.7% active in at least one column).
